Source: PubChem BioAssay
miR-21 FLuc: raises the signal of a miR-21 reporter; HeLa miR-21 FLuc reporter, luciferase, 48 h; Potency, µM (top dose mostly 38.3 µM), for the others: top-dose reporter change, positive = more light; 340,000 tested, under 10 active; active = well fitted rising curve with a large enough effect; inconclusive = small, poorly fitted or top-dose-only effect; inactive = no such curve, though single readings can be large or run the other way;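 note: % of control where 0% means no effect; miR-21 action dims this reporter so a rising signal means less miR-21 action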
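Luminescence from a firefly luciferase reporter carrying a miR-21 binding site downstream, stably expressed under a CMV promoter in HeLa cells that make miR-21 endogenously, reports miRNA modulation after 48 h compound exposure up to approximately 40uM final.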
* = called active by the depositor; ? = inconclusive. Some of the compounds tested; rates above refer to the full screens.

SMILES	miR-21 FLuc
COc1ccc(-c2oc3ncn4nc(-c5ccccc5OC)nc4c3c2-c2ccc(OC)cc2)cc1	1%
COc1ccccc1CNC(=O)c1ccc(N2CCCC2)c(NC(=O)NCCC(C)C)c1	-5%
O=S(=O)(Nc1ccc(-c2ccc(N3CCCCCC3)nn2)cc1)c1ccc(C(F)(F)F)cc1	0%
Cc1ccc(NC(=O)C2CCCN2S(=O)(=O)c2cccc3nsnc23)c(C)c1 (stereo not drawn)	-1%
COc1ccc2occ(CC(=O)Nc3ccc(S(=O)(=O)Nc4nccc(C)n4)cc3)c2c1	-1%
CC(Oc1ccccc1)C(=O)Nc1ccc(C(=O)OCc2cc(=O)n3nc(C(C)C)sc3n2)cc1 (stereo not drawn)	25%
Cc1ccc(NC(=O)/C(C#N)=C/c2ccc(C)o2)cc1	-62%
N#Cc1c(C(F)(F)F)cc(-c2cccs2)nc1SCC(=O)Nc1ccccc1F	-18%
CCOC(=O)c1ccccc1NC(=O)Cn1c(=O)n(CCC(=O)N2CCc3ccccc3C2)c(=O)c2ccccc21	7%
COC(=O)c1cc(NS(=O)(=O)c2ccc3c(c2)OCCO3)ccc1Cl	-10%
CCCC(=O)NCCc1nc2ccccc2n1Cc1c(F)cccc1Cl	2%
Cc1ccn2c(Nc3ccc(F)cc3)c(-c3ccccn3)nc2c1	10%
COc1ccc(CNC(=O)c2cc(-c3ccc(C)c(C)c3)n[nH]2)cc1	-41%
COc1cccc(NC(=O)CCc2nnc3n(Cc4ccccc4Cl)c(=O)c4ccccc4n23)c1	-1%
Cc1ccc(CN2COc3cc(C)c4c(oc(=O)c5ccccc54)c3C2)cc1	-1%
Cc1ccc(N(C)C(=O)c2cnc(N3CCOCC3)c3ccccc23)cc1C	-2%
CN(C)C(=O)c1ccc(S(=O)(=O)NCc2ccccc2Cl)s1	0%
Cc1ccc(CNS(=O)(=O)c2ccc(F)c(C(=O)Nc3ccc(C)c(F)c3)c2)cc1	-3%
Cn1cc(S(=O)(=O)c2ccccc2)c(=O)c2cc(F)c(N3CCCC3)cc21	-10%
Cc1nn(-c2ccc(N3CCCC3)nn2)c(C)c1CCC(=O)Nc1ccccc1	-3%
Cc1ccc(Cl)cc1Nc1sc(C(=O)c2ccc(F)cc2)c(N)c1S(C)(=O)=O	9%
Cc1ccc(C(C)C)c(OCCSc2nc3ccccc3n2CC(O)CO)c1 (stereo not drawn)	7%
Cc1ccc(-c2nn3c(-c4ccccc4C)nnc3c3ccccc23)cc1	-33%
CCCCCn1c(=O)[nH]c2cc(C(=O)N3CCN(c4cccc(C(F)(F)F)c4)CC3)ccc2c1=O	29%
Cc1cc(C(=O)NCc2ccccc2Cl)c2c(C)nn(-c3cccc(F)c3)c2n1	0%
COc1ccc(C2CC(=O)N3CN(C4CCCCC4)CSC3=C2C#N)c(OC)c1 (stereo not drawn)	-2%
COc1ccccc1-c1c(C(F)(F)F)oc2c(CN3CCCCC3C)c(O)ccc2c1=O (stereo not drawn)	3%
CC(C)c1ccc(NC(=O)CSC2=Nc3ccccc3C3=NC(CC(=O)NC4CCCCC4)C(=O)N23)cc1 (stereo not drawn)	-3%
CCOc1cc(-c2ccc(OC(=O)c3ccc(Cl)cc3)c(OC)c2)cc(=O)c2c(C)oc(C)c12	-2%
CCC(=O)N1CCc2cc(Br)cc(S(=O)(=O)CCC(=O)N3CCN(c4ccccc4OC)CC3)c21	8%
COc1ccc(NC(=O)C(C)Sc2cc(-c3ccccc3)nc(C)n2)cc1Cl (stereo not drawn)	4%
CCC(=O)N1CCc2cc(Br)cc(S(=O)(=O)CCC(=O)Nc3cccc(CC)c3)c21	-4%
Clc1cccc(N2CCN(c3c4c(nc5nncn35)CCC4)CC2)c1	2%
CCn1c(=O)c2cc(C(=O)NCCCN3CCC(C)CC3)sc2c2ccccc21	2%
CC(C)(C)C(=O)Nc1ccc2nc(SCC(=O)N3CCOCC3)sc2c1	-4%
CCN(CC)S(=O)(=O)c1ccc2c(c1)N(CC(=O)Nc1c(C)cccc1C)C(=O)C1CCCN21 (stereo not drawn)	0%
CCOc1ccc(CNC(=O)C2Cc3cc(S(=O)(=O)N4CCCCCC4)ccc3N2C(C)=O)cc1 (stereo not drawn)	-8%
Cc1cc(S(=O)(=O)N2CCN(Cc3noc(CCC(=O)N4CCCCC4)n3)CC2)ccc1F	1%
COC(=O)c1ccccc1NC(=O)Cn1nnc2sc(-c3ccccc3)cc2c1=O	1%
CC(C)OC(=O)c1c(-c2ccccc2)c(-c2ccccc2)nn(C)c1=O	12µM*
Cc1cccc(C(c2sc3nc(-c4ccco4)nn3c2O)N2CCN(c3ccccc3)CC2)c1 (stereo not drawn)	-7%
COc1cccc(C(=O)N2CCc3c([nH]c4ccccc34)C2c2ccc(SC)cc2)c1 (stereo not drawn)	24%
CCOC(=O)c1cc2c(=O)n3ccccc3nc2n(C)c1=NC(=O)c1cc2ccccc2o1	0%
COc1ccc(N2CCN(C(=O)c3cc(-c4ccc(C)c(F)c4)on3)CC2)cc1	-2%
Cc1ccc(-c2noc(-c3ccccc3NC(=O)C3CC(=O)N(c4ccccc4C)C3)n2)cc1 (stereo not drawn)	-6%
COc1ccc(-n2cc(C(=O)OCc3ccc(Cl)cc3)c3ccccc3c2=O)cc1	-5%
CCc1ccc(NC(=O)CSc2nc3c(sc4ccccc43)c(=O)n2CCN(CC)CC)cc1	-2%
CCCSc1ncc(Cl)c(C(=O)Nc2ccc(CC)cc2)n1	-8%
Nc1c(-c2nc(-c3ccccc3Cl)no2)nnn1-c1ccccc1C(F)(F)F	-8%
COc1cc(OC)c(NC(=O)c2cc(CN3CCOCC3)on2)cc1Cl	-14%
CCOc1cc(C(=O)NCCc2csc3nc(-c4ccc(C)cc4)nn23)cc(OCC)c1OCC	-10%
Cc1ccc(Nc2ncnc3c2cnn3-c2ccccc2)c(C)c1	-60%
O=C1CS(=O)(=O)C2(C(=O)N(Cc3ccccc3)c3ccccc32)N1c1ccccc1 (stereo not drawn)	-6%
Cc1ccccc1N1CC(C(=O)Nc2ccc(Br)cc2)CC1=O (stereo not drawn)	?
O=C(CC(Sc1ccc(Br)cc1)C(=O)O)c1ccc(Br)cc1 (stereo not drawn)	13%
Cc1ccc(-n2ncc3c(Nc4ccccc4C)ncnc32)cc1	-57%
COc1ccc(NC(=O)NC(C)c2c(-n3cccc3)sc(C)c2C)cc1OC (stereo not drawn)	13%
Cc1ccc(N(Cc2cccs2)C(=O)Nc2cccc(Cl)c2)cc1	-6%
COc1ccc(-c2nn(C)c3sc(C(=O)Nc4cccc(F)c4)cc23)cc1OC	29%
COc1cccc(-n2c(-c3ccccc3F)nc3c(cnn3-c3ccc(C)cc3)c2=O)c1	18%

Three structures already listed, arranged by molecular weight, low to high:
SMILES	miR-21 FLuc
Cc1ccc(Nc2ncnc3c2cnn3-c2ccccc2)c(C)c1	-60%
O=C1CS(=O)(=O)C2(C(=O)N(Cc3ccccc3)c3ccccc32)N1c1ccccc1 (stereo not drawn)	-6%
COc1cccc(-n2c(-c3ccccc3F)nc3c(cnn3-c3ccc(C)cc3)c2=O)c1	18%

Next part
SMILES	miR-21 FLuc
CC(C)CCNc1nc(Nc2ccccc2)c2cnn(C)c2n1	13%
CN(C)c1ccc(CNC(=O)c2ccc(Cn3c(=O)c4cccn4c4cccnc43)cc2)cc1	-3%
CC(C)c1ccc(S(=O)(=O)N2CCC(n3c(C(F)(F)F)nc4cccnc43)CC2)cc1	3%
CCc1ccc2oc(C(=O)Nc3nc(-c4ccccc4)ns3)c(C)c2c1	13%
CC1CCCN(Cc2nc3c(c(=O)n(C)c(=O)n3C)n2Cc2ccc(Cl)cc2Cl)C1 (stereo not drawn)	-2%
Cn1c(=O)[nH]c2cc(-c3noc(-c4ccc(Br)cc4)n3)ccc21	-10%
O=C(Nc1ccccc1)N(Cc1cccc(Cl)c1)c1ccccn1	15%
COc1ccc(NC(=O)C(=O)NCCc2sc(-c3ccc(Cl)cc3)nc2C)cc1	-21%
CCNC(=O)CC1C(=O)N(c2ccc(F)cc2)C(=O)N1CCOC (stereo not drawn)	-2%
CCc1cccc(C)c1NS(=O)(=O)c1cc2[nH]c(=O)c(=O)[nH]c2cc1C	2%
CCc1cccc(NC(=O)Cn2ccn3nc(-c4ccc(OC)c(OC)c4)cc3c2=O)c1	-3%
COc1ccc(CCNCc2c(C(=O)O)c(C)n(Cc3ccccc3C)c2C)c(OC)c1	-3%

Compounds above that contain a cyano group:
SMILES	miR-21 FLuc
Cc1ccc(NC(=O)/C(C#N)=C/c2ccc(C)o2)cc1	-62%
N#Cc1c(C(F)(F)F)cc(-c2cccs2)nc1SCC(=O)Nc1ccccc1F	-18%
COc1ccc(C2CC(=O)N3CN(C4CCCCC4)CSC3=C2C#N)c(OC)c1 (stereo not drawn)	-2%

Next section.
SMILES	miR-21 FLuc
CCCCNC(=O)c1cc(-c2ccc(Cl)c(Cl)c2)on1	-18%
COCCn1ccc2c(OCC(=O)Nc3c(C)cc(C)cc3C)cccc2c1=O	2%
CCOC(=O)COc1ccccc1C1C(C(=O)OC)=C(C)NC2=C1C(=O)c1ccccc12 (stereo not drawn)	-18%
COc1ccc(CCNC(=O)C2CCN(S(=O)(=O)c3c(C)noc3/C=C/c3ccc(C)cc3)CC2)cc1OC	0%
CCCSc1nc(=O)c2c(n1C)NC(=O)CC2c1cccc(F)c1F (stereo not drawn)	-1%
CCCCOc1ccc(S(=O)(=O)Nc2ccc(-c3ccc(N4CCCCCC4)nn3)cc2)cc1	1%
Cc1noc(C)c1S(=O)(=O)Nc1ccc(C(=O)Nc2ccc(Br)cc2)cc1	?
COc1cccc(C(=O)Nc2ccc3nc(SCCOc4ccccc4)sc3c2)c1	-3%
CCc1ccc(C(=O)c2cn(CC(=O)Nc3ccc4c(c3)OCCO4)c3ccc(CC)cc3c2=O)cc1	-3%
COc1ccccc1NC(=O)c1c(C)cc(C)nc1SCC(=O)Nc1ccc(C)cc1	4%
Nc1c(C(=O)Nc2ccc(F)cc2)sc2nc(-c3cccs3)cc(C(F)(F)F)c12	0%
CC(C)NC(=O)Nc1ccc2c(c1)N(C)C(=O)c1ccccc1S2	25%
COc1ccc(-n2ncc3c(NC4CCCC4)ncnc32)cc1	-2%
Cc1nc(N2CCCC2)ncc1C(=O)N1CCN(c2ccccc2F)CC1	1%
CC(C)N(C(=O)Cn1cc(S(=O)(=O)Cc2ccc(Br)cc2)c2ccccc21)C(C)C	-2%
COc1ccc(S(=O)(=O)Nc2cccc(-c3ccc(N4CCCC4)nn3)c2)cc1F	-18%
Cn1cnc(S(=O)(=O)N2CCCC(C(=O)Nc3ccc(OC(F)(F)F)cc3)C2)c1 (stereo not drawn)	-2%
O=C(Cn1nnc2sc(-c3ccccc3)cc2c1=O)Nc1cccc(C(F)(F)F)c1	-10%
Cc1ccc(NC(=O)Cn2c(=O)n(Cc3ccccc3)c(=O)c3c(C)c(C(=O)N(C)C)sc32)c(C)c1	10%
CCc1cccc(C)c1NC(=O)Cn1cnc2c1c(=O)n(C)c(=O)n2C	6%
CCOc1ccccc1NC(=O)CN1C(=O)C2(SCC(=O)N2c2cccc(F)c2)c2ccccc21 (stereo not drawn)	-5%
Cc1ccc(Nc2c(-c3ccc(C)s3)nc3ncccn23)cc1	-49%
Cc1nn(CC(=O)NC(C)c2ccccc2)c(=O)c2cc3occc3n12 (stereo not drawn)	-1%
Cc1cc(-n2ccnc(NCCc3ccc(S(N)(=O)=O)cc3)c2=O)ccc1Br	23%

Reformatted field by field: 4 of the compounds above
> Cc1nc(N2CCCC2)ncc1C(=O)N1CCN(c2ccccc2F)CC1
  miR-21 FLuc: 1%
> Cc1nn(CC(=O)NC(C)c2ccccc2)c(=O)c2cc3occc3n12 (stereo not drawn)
  miR-21 FLuc: -1%
> Cc1ccc(Nc2c(-c3ccc(C)s3)nc3ncccn23)cc1
  miR-21 FLuc: -49%
> Cc1ccc(NC(=O)Cn2c(=O)n(Cc3ccccc3)c(=O)c3c(C)c(C(=O)N(C)C)sc32)c(C)c1
  miR-21 FLuc: 10%

Following part:
SMILES	miR-21 FLuc
COc1ccc(N2CCN(C(=O)CSc3n[nH]c(-c4ccccc4)n3)CC2)cc1	-3%
CCN1C(=O)C2(c3ccccc31)c1c(oc3ccccc3c1=O)C(=O)N2CCOC (stereo not drawn)	-1%
Cc1ccc(C2c3[nH]c4ccccc4c3CCN2C(=O)CCc2ccccc2)cc1 (stereo not drawn)	22%
COc1cc(NC(=O)N2CCN(c3cc(-c4noc(C)n4)ccc3C)CC2)cc(OC)c1OC	3%
O=C(COc1ccccc1F)Nc1ccc(Cl)c(-c2nc3ccccc3[nH]2)c1	19%
CCOc1ccc(NC(=O)N(Cc2c[nH]c3ccccc23)C2CCCCC2)cc1	-34%
O=S1(=O)c2ccccc2N(Cc2cccc(F)c2)c2ccccc21	-18%
COc1ccccc1CNC(=O)CCC1N=C2c3ccccc3N=C(SCC(=O)Nc3ccc(F)cc3)N2C1=O (stereo not drawn)	26%
COc1ccccc1-c1cc(C(F)(F)F)nc(S(=O)(=O)CCCC(=O)Nc2ccc(F)c(Cl)c2)n1	-1%
Cc1nnc(NC(=O)CSCc2cc(=O)c3ccccc3[nH]2)s1	2%
CCOc1ccc(N2CC(c3nc4ccccc4n3CCCOc3ccc(OC)cc3)CC2=O)cc1 (stereo not drawn)	11%
CCn1c(=O)c2cc(C(=O)N(C)c3cc(Cl)c(OC)cc3OC)sc2c2ccccc21	0%
Cc1ccc(C)c(NC(=O)NCc2ccc3c(c2)CCN3C(=O)c2ccccc2)c1	4%
Cc1ccc(Cl)cc1-n1nnc(-c2nsc(NC(=O)c3ccccc3Cl)n2)c1C	-4%
COC(=O)CN1C(=O)CSc2ccc(S(=O)(=O)Nc3ccccc3)cc21	5%
